MT1-MMP promoter – inhibitors of MT1-MMP promoter transcription, cell-based, luciferase reporter, luminescence (AID 618); calls from a first round at 10 µM; hits with a dose series show EC50 in µM; actives 0.62% (n = 87,000); MT1-MMP promoter luciferase reporter cells, luminescence;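 active means over half of the reporter light lost at 10 µM or EC50 under 50 µM; inactive means the rest and hits that failed the dose series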;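 further: actives suppress MT1-MMP promoter-driven transcription so potencies describe inhibitors; HT1080 fibrosarcoma cells; overnight exposure; toxic or luciferase-blocking compounds were not removed from the actives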
Hsc70 ATP site – small molecules displacing fluorescent ligand from Hsc70 – biochemical, fluorescence polarization, primary screen (AID 568). Hsc70 fluorescence polarization, probe displacement; higher % means a stronger effect; strong numbers were not always called active. one-dose displacement, % at 20 µM; IC50 in µM for titrated hits. 83,000 tested, under 10 active;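 active means displacement above 50% without optical interference and an IC50 on retest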;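 further: ATPase domain with a fluorescein-tagged ATP probe; 0% = vehicle and 100% = excess ADP; read after one hour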
WNV protease inh – inhibitors of West Nile virus NS2B-NS3 protease. WNV NS2B-NS3 protease, fluorogenic substrate Ex360/Em465; active compounds read low. actives 0.18% (n = 65,000). AID 577. P06935. z-score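 (tested at a level between 10 and 100 µM)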;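 active means z-score at -3 or under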;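 further: score is relative to mean and spread of the compound wells of a plate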
Target sequence (P06935 1371-1501 limits assumed): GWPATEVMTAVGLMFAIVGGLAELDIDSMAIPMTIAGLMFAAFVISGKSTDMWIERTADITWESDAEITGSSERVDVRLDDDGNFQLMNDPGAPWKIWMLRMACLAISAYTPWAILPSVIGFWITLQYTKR
Target sequence (P06935 1502-1679 limits assumed): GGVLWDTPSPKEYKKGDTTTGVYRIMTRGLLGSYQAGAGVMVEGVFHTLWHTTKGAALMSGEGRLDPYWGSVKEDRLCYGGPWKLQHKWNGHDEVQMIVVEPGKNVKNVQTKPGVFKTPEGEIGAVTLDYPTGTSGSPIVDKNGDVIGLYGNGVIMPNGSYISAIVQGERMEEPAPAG
Active calls of the source: *; i = inactive; nt = not tested or not shown. Compounds were not picked by outcome (roughly 0.87% active in at least one column).

SMILES	MT1-MMP promoter	Hsc70 ATP site	WNV protease inh
CCOc1ncccc1C(=O)N(C)CC1COc2ccccc2O1 (centres undefined)	i	4.5%	nt
O=C1C2CC=C(Cl)CC2C(=O)N1CNc1ccccn1 (centres undefined)	i	0.3%	-0.14
CCOc1ccc(OCc2ccc(C(=O)O)o2)cc1	5.8µM*	-6.0%	1.04
COc1ccc(C(=O)Nc2ccc(N3CCCC3)cc2)cc1	i	-4.3%	nt
O=C(Nc1cccc(Cl)c1)Nc1ccc2c(c1)OCO2	i	-4.6%	0.59
CN1CCN(S(=O)(=O)c2ccc3c(c2)OCCO3)CC1	i	6.3%	nt
CC1(C)CC(=O)C2=C(C1)N(CC1CCCO1)C(=O)C2(NC(=O)c1cccnc1)C(F)(F)F (centres undefined)	i	2.2%	0.51
CCn1c(CNc2ccc(OC)cc2)nnc1SCC(=O)c1ccc(OC)cc1	i	0.2%	0.26
O=C(COc1ccccc1Cl)N1CCCC1	i	-0.1%	1.17
Cc1ccccc1-n1c(-c2cccnc2)n[nH]c1=S	i	8.9%	-0.73
O=C(NCc1cccs1)c1cc(-c2cccs2)on1	i	-4.4%	0.51
CCOC(=O)Cn1c(=O)oc2cc(S(=O)(=O)N(C)Cc3ccco3)ccc21	i	-4.7%	-0.9
CCNc1sc(C(=O)c2cccs2)c(N)c1C#N	i	-1.8%	0.13
COC(=O)c1ccccc1NC(=O)/C=C/c1cc(OC)c(OC)c(OC)c1	i	-1.2%	nt
O=C(c1ccc(-c2cccc(C(F)(F)F)c2)o1)N1CCOCC1	i	-3.3%	-0.16
CC1Cc2ccccc2N1C(=O)C1CCCN(S(=O)(=O)c2cccc3nsnc23)C1 (centres undefined)	i	-3.6%	-1.33
CC(C)CC(NC=C1C(=O)OC(C)(C)OC1=O)C(=O)O (centres undefined)	i	-1.9%	-0.24
COc1ccc(S(=O)(=O)NCCC(=O)NCc2ccc(F)cc2)cc1	i	0.3%	-0.03
CCc1ccccc1NC(=O)CSc1nc2ccccc2n1CC(=O)N1CCCC1	i	0.7%	nt
CC(C)n1c(SCC(=O)Nc2ccccc2)nc2c1c(=O)n(C)c(=O)n2C	i	26.0%	nt
O=C(CN1CC(=O)Oc2ccccc21)OCC(=O)c1ccccc1	i	-0.3%	3.48
O=C(NCCc1ccccc1)c1ccc(-n2cnnn2)cc1	i	-2.5%	-0.61
Cc1nnc(-c2cnn(C)c2N)n1Cc1cccc(Cl)c1	i	3.6%	nt
CSc1nnc(-c2cnccn2)n1CCCN1CCCC1=O	i	1.1%	0.52
CCCCOc1ccc(N(CC(=O)NC2CCCC2)C(=O)CCC(=O)Nc2ccccn2)cc1	i	3.0%	0.68

(list continues)
SMILES	MT1-MMP promoter	Hsc70 ATP site	WNV protease inh
CC(=O)c1ccc(N2CCN(c3ccc(C(F)(F)F)cn3)CC2)cc1	i	-7.6%	-0.96
CCOc1ccccc1N1CCN(C(=O)c2cc[n+]([O-])cc2)CC1	i	-1.6%	-0.53
Cc1ccc(CNC(=O)c2sccc2-n2cccc2)cc1	i	-1.1%	-0.35
COc1ccc(C(=O)Nc2cc(C)nc3ccccc23)cc1OC	i	2.7%	nt
CC1CN(C(=O)c2ccc3c(c2)OCO3)CC(C)O1 (centres undefined)	i	-0.7%	nt
CN(C)CC(O)COc1ccc(C(C)(C)c2ccc(OCC(O)CN(C)C)cc2)cc1 (centres undefined)	i	6.7%	0.29
O=C(O)C1CCN(C(=O)COc2ccc3c4c(c(=O)oc3c2)CCC4)CC1	i	-6.1%	-0.19
CCOC(=O)CSc1nc2ccccc2c(=O)n1Cc1ccco1	i	8.5%	-0.24
O=S(=O)(/C=C/c1ccccc1)N1CCN(c2cccc(Cl)c2)CC1	i	2.8%	nt
C=CCOc1cc(C)nc(-c2ccccc2O)n1	i	-4.2%	nt
CCc1ccc(C(=O)CC2(O)C(=O)N(CN3CCOCC3)c3ccccc32)cc1 (centres undefined)	i	12.7%	-0.73
CN1CCN(c2ccc(Cl)cc2NC(=O)c2cccc(S(=O)(=O)N(C)C)c2)CC1	i	-0.1%	-0.94
Cc1ccc(C(=O)CC(C(=O)O)n2cccn2)cc1 (centres undefined)	i	8.7%	-0.08
Cc1cccc(OCC(=O)O/N=C(\N)c2ccccn2)c1C	i	-1.1%	nt
COc1cc2nc(=S)n3[nH]c(CCn4c(C)nc5ccccc54)nc3c2cc1OC	i	-0.2%	0.4
COCCN(CC(=O)NCc1ccc2c(c1)OCO2)C(=O)CCC(=O)Nc1nccs1	i	0.4%	nt
COc1ccc(OC)c(C2C(C(C)=O)=C(O)C(=O)N2CCN2CCOCC2)c1 (centres undefined)	i	0.7%	-0.11
CCc1nnc(NC(=O)CCC(=O)Nc2ccccc2)s1	i	-1.2%	0.83
COc1nc(NCc2ccco2)nc(NC2CCCCC2)n1	i	2.7%	nt
O=C(CSc1nnnn1-c1ccccc1)Nc1ccc(Cl)cc1	i	1.6%	-0.39
O=C(NCCc1ccccc1)C1CCCN(S(=O)(=O)c2cccc3nsnc23)C1 (centres undefined)	i	3.8%	0.00973
O=C(CN(Cc1ccc(F)cc1)S(=O)(=O)c1ccccc1)N1CCCCC1	i	-7.6%	3.25
Cc1ccc(CNC(=O)c2ccccc2NC(=O)CSc2nnnn2C)cc1	i	-1.8%	0.09
CCOC(=O)N1CCN(S(=O)(=O)c2c(C)cc(C)cc2C)CC1	i	-0.1%	0.73
CSCC[C@H](NC(=O)C1CCN(S(=O)(=O)c2ccc(C)cc2)CC1)C(=O)NCC1CCCO1 (some centres undefined)	i	1.4%	0.05

Single records, from the list above. Order of values: MT1-MMP promoter	Hsc70 ATP site	WNV protease inh
Entry for CSCC[C@H](NC(=O)C1CCN(S(=O)(=O)c2ccc(C)cc2)CC1)C(=O)NCC1CCCO1 (some centres undefined) : i	1.4%	0.05
Entry for COc1ccc(S(=O)(=O)NCCC(=O)NCc2ccc(F)cc2)cc1 : i	0.3%	-0.03

Carrying on:
SMILES	MT1-MMP promoter	Hsc70 ATP site	WNV protease inh
COc1ccc(Cl)cc1S(=O)(=O)N1CCN(C(=O)c2cc(OC)c(OC)c(OC)c2)CC1	i	-3.9%	-2.33
CCCCN(CC)CCNC(=O)c1cc2c(C)nc3ccccc3c2o1	i	-0.3%	1.47
CCCCCOP(=O)(OCCCCC)C1(NS(=O)(=O)c2ccccc2)C=CC(=O)c2ccccc21 (centres undefined)	i	1.7%	nt
O=C(c1ccccc1)c1ccc(OCCCCN2CCCCC2)cc1	i	1.6%	nt
COC(=O)c1cn(C(=O)c2ccco2)c2ccccc12	i	6.5%	-0.00873
CCn1cc(C(=O)NCC2CCCO2)c(=O)c2cc(S(=O)(=O)N3CCC(C)CC3)ccc21 (centres undefined)	i	-3.8%	0.01
COc1cccc(-n2c(SCC(=O)NC3CCCC3)nnc2-c2ccco2)c1	i	-1.8%	nt
C=CCNc1nc2c(c(=O)n(C)c(=O)n2C)n1CCCCCC	i	3.2%	1.06
CCOC(=O)CON1C(=O)C(C)(C)N(OCC(=O)OCC)C(=O)C1(C)C	i	-2.5%	-0.87
O=c1oc2cc(Br)ccc2n1CSC1=NCCS1	i	1.2%	1.31
CC(C)(C)NC(=O)C1CCN(S(=O)(=O)c2ccc(Br)cc2)CC1	i	-1.0%	-1.29
Cc1c(-c2nc(N)nc(Nc3ccccc3)n2)oc2ccccc12	i	1.7%	1.47
CCCS(=O)(=O)c1snnc1C	i	-0.6%	nt
Nc1nc(NCc2c(F)cccc2Cl)nn1-c1ccccc1	i	-4.5%	0.05
CC1=C(C#N)C(Nc2cccc(C)n2)(C(F)(F)F)C(=O)N1 (centres undefined)	i	-2.8%	0.85
CC(=O)N1CCN(Cc2nc3cc(NC(=O)C4CCCCC4)ccc3n2C)CC1	i	-9.0%	0.42
CCCc1[nH]nc2c1C(c1ccc(OC)c(Cn3nc(C)c(Br)c3C)c1)C(C#N)=C(N)O2 (centres undefined)	i	1.0%	2.09
CCOc1ccc2nc(NC(=O)C3CCN(S(=O)(=O)c4cnc[nH]4)CC3)sc2c1	i	1.9%	-0.81
CCC1CCCCN1Cc1nc2c(c(=O)n(C)c(=O)n2C)n1Cc1cccc2ccccc12 (centres undefined)	i	0.5%	-0.81
C[C@]12CC[C@@H]3c4ccc(O)cc4[C@@H](O)C[C@H]3[C@@H]1CC[C@@H]2O	i	2.0%	nt
O=C1/C(=C\c2ccc3ccccc3c2)CCCc2ccccc21	i	1.7%	nt
COc1ccc(NC(=O)CC(NCCc2ccccc2)C(=O)O)c(OC)c1 (centres undefined)	i	-6.0%	0.08
Cc1ccccc1C(=O)c1cccn1CC(=O)NCC1CCCO1 (centres undefined)	i	-0.8%	0.13
COc1ccc2[nH]c(=O)c(C(c3nnnn3C3CCCCC3)N3CCN(C)CC3)cc2c1 (centres undefined)	i	2.2%	1.25
CNS(=O)(=O)c1ccc(C)cc1	i	3.4%	nt

(listing goes on)
SMILES	MT1-MMP promoter	Hsc70 ATP site	WNV protease inh
CCn1cnc2c(cnn2-c2ccccc2)c1=O	i	-1.3%	nt
O=C(CSCC(=O)NCc1ccco1)NCc1ccco1	i	-5.8%	-0.7
COCCN(C(=O)CNC(=O)c1cccs1)C(C(=O)NC1CCCC1)c1cccs1 (centres undefined)	i	-1.0%	-0.39
CCOC(=O)N1CCC(NC(=O)CCc2c(C)nc3nc(C)nn3c2C)CC1	i	-7.8%	-0.2
C1=C(c2ccc(-c3ccccc3)cc2)Nc2ncnn2C1c1ccco1 (centres undefined)	i	53.3%	-0.7
Cc1noc(C)c1COC(=O)c1ccccc1NC(=O)Cc1ccccc1	i	2.9%	0.29
COc1ccc(Br)cc1/C=c1\sc2nc(-c3ccco3)nn2c1=O	i	-15.3%	-3.01*
Cc1cc(C)n2c(SCc3cccs3)nnc2n1	i	1.8%	1.02
Nc1nc(SCc2ccc(Cl)cc2Cl)ns1	i	-2.3%	nt
CC1(C)CC(=O)C(CC(=O)Nc2ccc(S(N)(=O)=O)cc2)=C(O)C1	i	-3.7%	-0.35
CCOC(=O)C1=C(CSc2nncn2C)NC(=O)NC1c1cc(OCC)ccc1OCC (centres undefined)	i	3.4%	0.06
COc1cccc(NC(=O)CSc2ncnc3c2cnn3Cc2ccccc2)c1	i	0.2%	nt
CCN(CC)S(=O)(=O)c1ccc(Nc2nc3ccccc3n3nnnc23)cc1	i	-22.3%	1.11
COc1ccc(C2C(C(=O)OCC(=O)N3CCCCC3)CCC(=O)N2c2ccc(OC)cc2)cc1 (centres undefined)	i	1.9%	-0.93
Clc1ccc(SCc2cn3cccnc3n2)cc1	i	-2.4%	nt
O=S(=O)(NCC1CCCO1)c1ccc(S(=O)(=O)N2CCc3ccccc3C2)cc1 (centres undefined)	i	0.1%	-0.56
O=S(=O)(Nc1ccc(S(=O)(=O)N2CCOCC2)cc1)c1ccccc1	i	0.8%	0.22
CC(=O)Nc1ccc2nc(-c3ccncc3)[nH]c2c1	i	5.1%	nt
CCN(CC)c1ccc(NC(=O)CN2CCN(S(=O)(=O)c3cc(Cl)ccc3OC)CC2)cc1	i	0.6%	nt
COc1ccc(N2CCN(S(=O)(=O)Cc3ccccc3)CC2)cc1	i	-0.7%	nt
Cc1ccc(S(=O)(=O)Nc2nsc(N)n2)cc1	i	-3.6%	-0.65
CCOCCOCN(C#N)c1nc(OC)nc(N(C)C)n1	i	-0.8%	0.13
Cc1ccc(N(C(=O)C2CCCC2)C2C=CS(=O)(=O)C2)cc1 (centres undefined)	i	-1.3%	0.72
Cc1ccc(CN2C(=O)CSc3ccc(C(=O)NCCN4CCOCC4)cc32)cc1	i	-2.6%	0.4
COc1cc2c(cc1NC(=O)CN(C)Cc1nc3ccccc3c(=O)[nH]1)oc1ccccc12	i	-3.2%	0.91

Four of the compounds above, as a markdown table:
| canonical_smiles | MT1-MMP promoter | Hsc70 ATP site | WNV protease inh |
| --- | --- | --- | --- |
| COc1ccc(N2CCN(S(=O)(=O)Cc3ccccc3)CC2)cc1 | i | -0.7% | nt |
| Cc1ccc(S(=O)(=O)Nc2nsc(N)n2)cc1 | i | -3.6% | -0.65 |
| CCOCCOCN(C#N)c1nc(OC)nc(N(C)C)n1 | i | -0.8% | 0.13 |
| Cc1ccc(N(C(=O)C2CCCC2)C2C=CS(=O)(=O)C2)cc1 (centres undefined) | i | -1.3% | 0.72 |

Next compounds:
SMILES	MT1-MMP promoter	Hsc70 ATP site	WNV protease inh
CCCCOc1ccc(S(=O)(=O)NCc2csc(C)n2)cc1	i	-0.1%	0.34
O=C(Nc1ccncc1)c1cccc(F)c1	i	1.1%	0.06
CCOC(=O)C1=C(C)OC(N)=C(C#N)C1c1c(C)nn(-c2ccccc2)c1Cl (centres undefined)	i	4.2%	0.11
CCc1nc2ccccc2c(C(=O)OC2CCOC2=O)c1C (centres undefined)	i	1.6%	-0.45
O=C(CSc1ccc2c(c1)OCCO2)NCC1CCCO1 (centres undefined)	i	-0.4%	-0.32
CCc1ccccc1OCC(=O)NC1CCCC1	i	6.9%	-0.14
Cc1cc(C)n(-c2nc(NCCC(C)C)c3c4c(sc3n2)COC(C)(C)C4)n1	i	5.5%	nt
O=C1C(Cl)=C(N2CCOCC2)C(=O)N1c1ccccc1	i	2.3%	nt
CS(=O)(=O)NC1CCN(Cc2ccccc2)CC1	i	1.3%	2.04

Reprinted at random: three records from the list, in no set order.
SMILES	MT1-MMP promoter	Hsc70 ATP site	WNV protease inh
CCOC(=O)N1CCN(S(=O)(=O)c2c(C)cc(C)cc2C)CC1	i	-0.1%	0.73
O=C(COc1ccccc1Cl)N1CCCC1	i	-0.1%	1.17
CCc1ccccc1OCC(=O)NC1CCCC1	i	6.9%	-0.14
